KCNQ2 pot: potentiators of rat KCNQ2 potassium channel | Potassium voltage-gated channel subfamily KQT member 2 (Rattus norvegicus), O88943 | B-score at 10 µM | CHO-K1 KCNQ2, FluxOR thallium flux fluorescence; active compounds read high | actives 0.54% (n = 310,000);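 active = fluorescence ratio B-score at least 3 SD of library B-scores, with initial fluorescence B-score within 3 SD, cut at about 5.3 in these data; same plate scores as AID 2156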;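 also: B-score of peak minus minimum over baseline fluorescence ratio after K+ and Tl+ stimulus; positive B-score means potentiation of KCNQ2 with more thallium influx and brighter signal; only the inactives scoring about 0 or higher are listed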
Target sequence (O88943 whole entry, looked up): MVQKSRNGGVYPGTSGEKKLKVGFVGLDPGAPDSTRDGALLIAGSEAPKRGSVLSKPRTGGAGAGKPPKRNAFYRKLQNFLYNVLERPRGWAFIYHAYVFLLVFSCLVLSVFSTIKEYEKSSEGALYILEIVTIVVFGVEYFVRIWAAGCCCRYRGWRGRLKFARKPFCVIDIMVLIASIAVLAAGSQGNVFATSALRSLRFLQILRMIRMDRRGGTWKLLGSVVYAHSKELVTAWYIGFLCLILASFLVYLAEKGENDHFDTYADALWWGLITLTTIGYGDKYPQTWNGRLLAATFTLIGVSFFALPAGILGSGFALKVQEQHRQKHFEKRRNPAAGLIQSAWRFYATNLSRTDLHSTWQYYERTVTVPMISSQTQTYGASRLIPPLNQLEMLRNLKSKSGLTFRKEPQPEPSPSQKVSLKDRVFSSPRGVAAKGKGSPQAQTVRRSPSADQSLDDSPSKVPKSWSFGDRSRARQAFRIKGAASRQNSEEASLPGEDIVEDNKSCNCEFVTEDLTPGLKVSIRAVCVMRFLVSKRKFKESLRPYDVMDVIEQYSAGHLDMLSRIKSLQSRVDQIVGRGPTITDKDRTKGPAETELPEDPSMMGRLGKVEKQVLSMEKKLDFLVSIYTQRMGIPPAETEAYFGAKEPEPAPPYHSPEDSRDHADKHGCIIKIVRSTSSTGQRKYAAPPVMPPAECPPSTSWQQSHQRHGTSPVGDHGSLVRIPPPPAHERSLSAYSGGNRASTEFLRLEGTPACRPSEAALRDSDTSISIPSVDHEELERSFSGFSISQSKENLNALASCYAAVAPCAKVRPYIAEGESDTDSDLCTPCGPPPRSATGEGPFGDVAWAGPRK
KCNQ2 pot baseline: further read-out of KCNQ2 pot, marked with its call; B-score; compound at 10 µM; measured here: initial fluorescence intensity artifact check;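 brightness before thallium and not channel activity; 0 = typical well and far values either way flag optical interference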
An asterisk follows results filed as active; x = no result given. This is a subset, so the mix of outcomes need not match the whole.

SMILES | KCNQ2 pot | KCNQ2 pot baseline
Cc1ccc(NC(=O)Nc2c(C)n(C)n(-c3ccccc3)c2=O)cc1 | 1.1 | -1.6
N#Cc1cc2c(=O)n3ccccc3nc2n(Cc2ccco2)c1=NC(=O)c1ccco1 | 1.8 | 0.51
Cc1sc2nc(CN3CCOCC3)[nH]c(=S)c2c1C | 19* | 1.4*
CC(C)(C)OC(=O)CNC(=O)c1nc[nH]c1C(=O)N1CCNCC1 | 0.18 | 1.2
COCC1CCN(C(=O)c2ccc3oc(CCCc4ccccc4)nc3c2)C1 (stereo not given) | 0.75 | 0.39
Cc1c(C(=O)O)oc2ccc(S(=O)(=O)N3CC(C)CC(C)C3)cc12 (stereo not given) | 0.26 | -0.52
CCCCC(Br)C(=O)Nc1ccc(S(=O)(=O)Nc2cc(C)nc(C)n2)cc1 (stereo not given) | 0.29 | 2
Cc1ccccc1-c1nc2cc(Cl)ccc2c(=O)o1 | 1.2 | 0.47
COCCN1CCCC(CNCc2cn(C)nc2-c2ccc(Oc3ccccc3)cc2)C1 (stereo not given) | 0.28 | 0.47
O=C(c1cn(-c2ccccc2)nc1-c1cccnc1)N1CCCC(C(F)(F)F)C1 (stereo not given) | 0.83 | -0.41
O=C(Nc1ccc(Cl)cc1Cl)c1ccc2ncsc2c1 | 0.93 | 0.17
CCN1C(=O)[C@H]2[C@@H](c3ccc(-c4ccc(OC)cc4)c(OC)c3)N[C@@](C)(C(=O)OC)[C@H]2C1=O | 0.32 | 0.88
COCCn1c(=O)[nH]c2cc(C(=O)NC(C)C)ccc2c1=O | 1.7 | -0.05
CN1CCN(S(=O)(=O)c2cccc(S(=O)(=O)c3ccc(Cl)cc3)c2)CC1 | 0.24 | -0.53
CC(=O)c1cccc(CN2CCC(n3nccc3NC(=O)CCOc3ccccc3)CC2)c1 | 0.32 | 2.2
Cc1ccccc1Nc1nc(N)nc(COC(=O)/C=C/c2ccco2)n1 | 1.7 | -3
Cn1cc(CN2CCC(n3nccc3NC(=O)Cc3ccccc3)CC2)cn1 | 0.01 | -1.1
CC(=O)c1ccc(Sc2ccccc2N)c([N+](=O)[O-])c1 | 1.4 | 0.02
COc1cccc(/C(O)=C2/C(=O)C(=O)N(CCN(C)C)C2c2ccccn2)c1 (stereo not given) | 0.77 | 0.51
CSc1ccccc1C(=O)Nc1cccc([N+](=O)[O-])c1 | 1.2 | 0.73
CC(C)NC(=O)CN(Cc1ccccc1)S(=O)(=O)c1ccccc1 | 1.4 | 0.41
Cc1cccc(CSc2ccc3nnc(-c4cccs4)n3n2)c1 | 0.04 | 1.4
CC(C)(C)c1ccc(OCC(O)CS(=O)(=O)c2ccccn2)cc1 (stereo not given) | 1.1 | 0.98
CC(C)(C)[C@H]1C=C(C(=O)Nc2ccccc2)O[C@@H](OCCCCO)C1 | 2.2 | -0.79
O=C1C=C(NCc2ccco2)C2(CCCCC2)O1 | 0.02 | -2.2
COc1ccc(NC(=O)Nc2cc(F)ccc2C)cc1 | 0.53 | -0.51
Nc1ncc(Br)cc1S(=O)(=O)NC1CCCCC1 | 0.81 | 0.03
O=C(C(NS(=O)(=O)c1cccs1)c1ccccc1)N1CCN(c2ccccc2F)CC1 (stereo not given) | 0.87 | -0.71
O=C(Nc1ccc(F)cc1)C1CCN(c2ncnc3c2nc2n3CCCCC2)CC1 | 2.8 | -1
CCOC(=O)n1c(=O)n(Cc2ccccc2)c2ccccc21 | 1.1 | -2.1

In a second layout: results already given.
| SMILES | KCNQ2 pot | KCNQ2 pot baseline |
| --- | --- | --- |
| Cc1sc2nc(CN3CCOCC3)[nH]c(=S)c2c1C | 19* | 1.4* |
| CC(C)(C)OC(=O)CNC(=O)c1nc[nH]c1C(=O)N1CCNCC1 | 0.18 | 1.2 |
| COCC1CCN(C(=O)c2ccc3oc(CCCc4ccccc4)nc3c2)C1 (stereo not given) | 0.75 | 0.39 |
| Cc1c(C(=O)O)oc2ccc(S(=O)(=O)N3CC(C)CC(C)C3)cc12 (stereo not given) | 0.26 | -0.52 |
| CCCCC(Br)C(=O)Nc1ccc(S(=O)(=O)Nc2cc(C)nc(C)n2)cc1 (stereo not given) | 0.29 | 2 |
| Cc1ccccc1-c1nc2cc(Cl)ccc2c(=O)o1 | 1.2 | 0.47 |
| COCCN1CCCC(CNCc2cn(C)nc2-c2ccc(Oc3ccccc3)cc2)C1 (stereo not given) | 0.28 | 0.47 |

Other results.
SMILES | KCNQ2 pot | KCNQ2 pot baseline
CC/C(=C/c1sc2ccccc2[n+]1CC)SC | 1.7 | 0.24
CCN1CCN(C(=O)CCS(=O)(=O)c2cc3c(cc2Cl)NC(=O)CO3)CC1 | 0.82 | 0.61
COc1ccccc1OCCCCNC(C)(C)C | 0.68 | 0.05
COc1ccc(N2CCC(CNC(=S)Nc3c(C)cc(C)cc3C)C2)cc1 (stereo not given) | 1.4 | 0.75
CCOc1ccc(-c2cc(N)n(S(=O)(=O)c3ccc(OC)cc3)n2)cc1 | 2 | 0.31
COC(=O)CCC(=O)COc1ccccc1C#N | 0.4 | 1.6
O=C(CCc1nc2ccccc2[nH]1)N1CCc2ccccc2C1 | 0.08 | 3.2
CCc1nc(SCC(=O)O)c(C#N)c2c1CCCC2 | 1.1 | -0.75
CCOc1cc(C)c(S(=O)(=O)NC2CCCCC2)cc1C | 1.5 | -0.98
COc1cccc(C(=O)NCC2(c3ccc(OC)c(OC)c3)CCCC2)c1 | 1.5 | -1.4
COc1ccc2c(c1)CCc1c(C(=O)NCc3ccco3)noc1-2 | 1.1 | 1.1
O=C(NCCc1c[nH]c2ccccc12)C(=O)NCC(c1ccco1)N1CCN(c2ccc(F)cc2)CC1 (stereo not given) | 0.41 | 1.1
O=C1NC(=Nc2ccccc2Cl)SC1(CO)CO | 0.61 | -1.7
Nc1nc(Sc2ccc(C(F)(F)F)cc2[N+](=O)[O-])n[nH]1 | 0.04 | -0.52
Cc1cc(C(=O)N/N=C/c2ccc(-c3cccc(Cl)c3Cl)o2)n[nH]1 | 0.14 | 2.1
CCCn1nc(Oc2nc(NC(C)C)nc(N(C)C)n2)ccc1=O | 1.2 | 0.45
COc1ccc(CN2CCCCCC2)cc1 | 0.36 | -0.43
Cc1c(CC(=O)N[C@@H](C)C(=O)O)c(=O)oc2cc3c(cc12)CCC(C)(C)O3 | 1.8 | 0.08
Cn1c(N)c(C(=O)COC(=O)CNS(=O)(=O)c2cccc(Cl)c2)c(=O)n(C)c1=O | 0.63 | 1
Cc1cc(C(=O)COC(=O)C23CC4CC(CC(O)(C4)C2)C3)c(C)n1-c1c(C)n(C)n(-c2ccccc2)c1=O | 0.22 | 0.78
COCCCNC(=S)NNC(=O)c1cc(C2CC2)nc2ccccc12 | 0.32 | 0.68
O=c1oc2ccccc2cc1-c1csc(NN=C2CCCC2)n1 | 0.37 | -1.1
O=C(O)c1ccc(-c2nnc(-c3cccc(Br)c3)o2)cc1 | 0.38 | 1.5
CSc1cccc(NC(=S)N2CCC(N(C)C(C)C)CC2)c1 | 0.44 | 0.37
O=C(CSc1nc2ccccc2c(=O)n1CCCC(=O)N1CCCC1)NCc1ccco1 | 0.97 | 1.4
COc1ccc(NS(=O)(=O)Cc2ccccc2Cl)cn1 | 1.6 | -1.6
C=CCNC(=O)C1CC(=O)N(c2ccc(OCC(=O)Nc3ccccc3)cc2)C1 (stereo not given) | 0.05 | -0.82
c1cncc(-c2csc(-c3cccnc3)n2)c1 | 0.23 | 1.1
CC1CC(C)CN(C(=O)Cn2c(=O)n(CCCCC(=O)NC3CCCC3)c(=O)c3ccccc32)C1 (stereo not given) | 1 | 3.9
COc1ccccc1CN(CC(=O)NCc1ccc(F)cc1)C(=O)c1csnn1 | 0.94 | -1.5
O=[N+]([O-])c1ccc(C[n+]2cccc3ccccc32)cc1 | 0.79 | 1.5
Cc1cccc(Nc2nc(N)c([N+](=O)[O-])c(N3CCC(C)CC3)n2)c1 | 2 | -0.92
COc1ccc(NC(=O)C23CCC(C)(C(=O)C2)C3(C)C)cc1 (stereo not given) | 1 | 0.06
CC(=O)N1CCc2cc(S(=O)(=O)NCCC(=O)NC3CCCc4ccccc43)ccc21 (stereo not given) | 0.13 | -0.8
O=C(Nc1nc(-c2ccc(F)c(F)c2)cs1)c1ccc(OCC2CCCO2)cc1 (stereo not given) | 1.7 | -1.8
Cc1ccc(-c2csc3ncnc(Nc4ccc(C(=O)O)cc4)c23)cc1 | 0.41 | -0.02
COc1ccc(C(=O)OCC(=O)NC2CC2)cc1S(=O)(=O)N1CCOCC1 | 0.57 | -0.01
Cc1ccc(/C=C/C(=O)N2CCCC(C)C2)cc1 (stereo not given) | 0.12 | -1.2
CCOC(=O)Cc1cc(=O)c2cc(C)ccc2[nH]1 | 1.6 | -2.9
Cc1ccc(OCc2ccc(C(=O)O)o2)c([N+](=O)[O-])c1 | 1.4 | -1.4
O=C(Nc1ccc(NC(=O)c2cccs2)c(Cl)c1)c1ccco1 | 0.96 | 0.21
O=C(O)CCn1cnc2ccccc2c1=O | 2.5 | -1.9
CC1(C(=O)NC2CCCC2)CCC(=O)N1Cc1ccccc1 (stereo not given) | 0.95 | 0.06
C=CCS(=O)(=O)c1cccc2cccnc12 | 1.7 | -0.43
CC(C)NC(=O)NC(=O)CSc1ccccc1F | 0.98 | -0.02
Cc1ccc(-c2csc3nnc(SCC(=O)N4CCN(Cc5ccccc5)CC4)n23)cc1 | 0.31 | 0.21
O=C(Nc1ccc(N2CCN(Cc3ccccc3)CC2)cc1)c1ncn[nH]1 | 0.27 | 0.31
COc1ccccc1N(CC(O)CN1CCCCC1)S(=O)(=O)c1ccc(C)cc1 (stereo not given) | 0.75 | -2
O=C1N=C(N2CCOCC2)S/C1=C/c1cccs1 | 1.4 | -0.04
Oc1ccc(O)c(Cc2nc3ccccc3s2)c1 | -5.6 | x

Further records:
SMILES | KCNQ2 pot | KCNQ2 pot baseline
CON1C(=O)C(=O)N(OC)C2CCCCC21 (stereo not given) | 0.43 | 0.78
CCOc1ccc(C(=O)NCc2ccncc2)cc1OCC | 0.25 | 0.11
CS(=O)(=O)N(CC(=O)NCCC1=CCCCC1)C1CCCCC1 | 1.2 | 1.2
Clc1nnc(NN=C2CCCC2)c2ccccc12 | 9.5* | -1.2*
O=C(C1CCN(S(=O)(=O)c2cccs2)CC1)N(c1ccccn1)C1CCCCC1 | 1.4 | 0.05
CC(C)c1ccc(NC(=O)C(c2ccccc2)N(C)C(=O)c2cnccn2)cc1 (stereo not given) | 0.26 | -0.26
CN(c1ccccc1)S(=O)(=O)c1cccc(C(=O)NNC(=O)c2ccncc2)c1 | 1.3 | 0.02
CCCNc1nc2c(c(=O)n(C)c(=O)n2C)n1Cc1cccc(C)c1 | 0.14 | 0.22
CCOC(=O)c1c(C)[nH]c(C(=O)OCC(=O)NCCc2ccc(OCC)c(OCC)c2)c1C | 0.77 | 0.06
COc1ccc(CCNC(=O)CCN2C(=O)C3CC=CCC3C2=O)cc1OC (stereo not given) | 0.05 | -0.82

Five entries from above, with values under each structure:
Order of values – KCNQ2 pot	KCNQ2 pot baseline
- CS(=O)(=O)N(CC(=O)NCCC1=CCCCC1)C1CCCCC1
    1.2	1.2
- Clc1nnc(NN=C2CCCC2)c2ccccc12
    9.5*	-1.2*
- O=C(C1CCN(S(=O)(=O)c2cccs2)CC1)N(c1ccccn1)C1CCCCC1
    1.4	0.05
- CC(C)c1ccc(NC(=O)C(c2ccccc2)N(C)C(=O)c2cnccn2)cc1 (stereo not given)
    0.26	-0.26
- CN(c1ccccc1)S(=O)(=O)c1cccc(C(=O)NNC(=O)c2ccncc2)c1
    1.3	0.02

Going on with the list.
SMILES | KCNQ2 pot | KCNQ2 pot baseline
CC(CC(=O)Nc1ccncc1)c1ccccc1 (stereo not given) | 2.4 | -0.97
NS(=O)(=O)c1ccc2nc(NC(=O)Nc3ccccc3F)sc2c1 | 0.64 | 0.23
CCC(=O)Nc1ccc2ccccc2c1 | 0.76 | 1.8
CC(C)Oc1ccc(C(=O)NCCCNC(=O)c2ccccn2)cc1 | 0.69 | 0.96
O=C(CC1OC(=O)c2ccccc21)Nc1ccccc1N1CCOCC1 (stereo not given) | 0.15 | 0.04
COc1cccc(CC2(CO)CCCN(Cc3ccc(CO)o3)C2)c1 (stereo not given) | 1.6 | 0.24
CN1CCN(c2ccc(NC(=O)CN3CCOCC3)cc2F)CC1 | 0.86 | 0.76
Cc1cc2ccccc2nc1SCC(=O)N1c2ccccc2CC1C (stereo not given) | 1.4 | -0.45
CCCN(CCC)CCCNC(=O)c1cc2c(=O)[nH]c3ccccc3c2n1C | 0.93 | -1.1
CCc1ccc(-c2n[nH]c(=O)c3ccccc23)cc1 | 1.2 | 0.24
Cc1cc(C)n2nc(CNS(=O)(=O)c3ccc([N+](=O)[O-])cc3)nc2n1 | 0.02 | 0.62
CCc1c(C)nc2ncnn2c1NCCc1ccc(Cl)cc1 | 2.1 | -2.4
Cc1ccc(NC(=O)Cn2nnc3ccccc3c2=O)cc1 | 1.3 | -0.9
CCC(=O)N1CCc2cc(S(=O)(=O)NCCC(=O)N3CCN(c4cccc(OC)c4)CC3)ccc21 | 0.46 | -0.61
CC1CN(/C=C/C=O)C(C)CC1OC(=O)c1ccccc1 (stereo not given) | 0.23 | -0.12
CCC/C=N/NC(=O)c1[nH]c2c([N+](=O)[O-])cccc2c1C | 0.15 | 2.5
COc1cc(S(=O)(=O)N2CCCCCC2)ccc1-n1cnnn1 | 0.08 | -0.98
Cc1c(NC(=O)C(=O)/C=C(\O)c2ccc(Br)cc2)c(=O)n(-c2ccccc2)n1C | 0.33 | -0.51
COc1ccc(-c2cnc(N)nc2-c2ccc(OC)cc2)cc1 | 2.5 | 0.98
CC(C)c1ccc(-c2c(NCCc3ccccc3)c(=O)c2=O)cc1 | 0.46 | 0.28
Cc1ccc(-n2nc(C)c(=O)c(-c3ccccc3)c2NC(=O)C(C)C)cc1 | 0.79 | -1

Source: PubChem BioAssay
